# Screening data: PubChem, several laboratories
# Ecoli rRNA inh: inhibits bacterial ribosomal RNA function over humanized ribosomes | E. coli WT GFP vs humanized-ribosome RFP mutants, fluorescence, 24 h; stronger effect = lower value; DMSO median 0, no signal -100 | GFP signal change (wild-type ribosome), % (concentration not given with the values) | hit rate 1.6% among 350,000 | AID 720706;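 active = significant combined selectivity score with lowered wild-type GFP, culture density cut under 30%, mutant RFP and density less affected; inactive = any of these conditions unmet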; note: one replicate is shown; some compounds called inactive have numbers as strong as hits
# B2AR ag: human beta-2 adrenergic receptor agonism by FAP | Am2.2-beta2AR cells, FAP receptor internalization, flow cytometry; reference of the scale not given here | response, % (concentration not given with the values) | hit rate 0.43% among 340,000 | AID 504454;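 active = response above a set limit, near 3 SD of response in nonfluorescent compounds, cut at about 42% in these data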;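 note: stock transfer was 100 nL into about 11 µL; a reference agonist was the positive control; negative values mostly stem from fluorescent compounds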
# Target sequence (P07550 whole entry, looked up): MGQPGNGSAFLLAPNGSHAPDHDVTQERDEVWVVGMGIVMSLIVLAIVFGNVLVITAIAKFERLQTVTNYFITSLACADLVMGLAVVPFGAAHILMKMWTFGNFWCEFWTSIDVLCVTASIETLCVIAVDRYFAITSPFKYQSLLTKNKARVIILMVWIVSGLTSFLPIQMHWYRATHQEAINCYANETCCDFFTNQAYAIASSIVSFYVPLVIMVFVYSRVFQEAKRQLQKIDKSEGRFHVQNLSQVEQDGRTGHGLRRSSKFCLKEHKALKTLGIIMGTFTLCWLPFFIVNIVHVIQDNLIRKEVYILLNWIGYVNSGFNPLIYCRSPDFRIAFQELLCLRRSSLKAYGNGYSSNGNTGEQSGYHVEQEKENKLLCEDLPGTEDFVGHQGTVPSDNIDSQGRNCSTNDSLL
# Beta apoptosis: blocks beta cell apoptosis. AID 435005. INS-1E cytokine-induced death, ATP luminescence, 48 h; percent of positive-control rescue, neutral wells zero. protection from apoptosis, % (test concentration not listed). hit rate 0.8% among 300,000;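 active = all replicates at 75% or more, or half of them and the mean; inconclusive = half reach 75% but not the mean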;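 note: 0% = cytokine-treated negative control wells and 100% = positive control rescue; higher means more ATP so stronger rescue from cytokine killing; wells of about 40 µL received 100 nL stock; the first replicate is given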
# A1 inh: inhibitors of the anti-apoptotic protein A1, read as caspase activation; MEF A1-2A-BIM cells, Caspase-Glo 3/7 luminescence, 3 h; percent of clofoctol response, vehicle zero; caspase activation, % (test concentration not listed); AID 2462; hit rate 0.066% among 330,000;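 active = over half of replicate activation scores above 10%, or exactly half above 10 with the replicate mean above 10; inconclusive = replicate mean below 10 yet half the replicates above 10; inactive = over half of replicates below 10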;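 note: wells of about 30 µL received 50 nL stock; many hits fall short of the cut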
# ALR H2O2 inh: inhibitors of human sulfhydryl oxidase ALR | inhibition, % (no concentration beside the values) | AID 485317 | hit rate 3.8% among 290,000 | purified ALR, DTT oxidation, H2O2 HRP-luminol luminescence;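 active = mean and each replicate at 75% or more; inconclusive = only one of the two met; inactive = neither met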;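 note: stock transfer was 7.5 nL into about 7.5 µL; 0% = neutral wells and 100% = wells with inactivated enzyme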
# Target sequence (P55789 whole entry, looked up): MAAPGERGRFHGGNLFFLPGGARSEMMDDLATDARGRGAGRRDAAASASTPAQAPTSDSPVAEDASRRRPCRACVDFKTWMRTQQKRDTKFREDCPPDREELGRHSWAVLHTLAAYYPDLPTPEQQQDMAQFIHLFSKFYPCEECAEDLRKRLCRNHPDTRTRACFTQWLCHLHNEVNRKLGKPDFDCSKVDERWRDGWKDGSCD
# Calb FLC: affects C. albicans growth with fluconazole; growth inhibition, % (test concentration not listed); C. albicans CaCi-2 (fluconazole-resistant clinical isolate) + fluconazole, Alamar Blue growth, 48 h; hit rate 0.57% among 300,000;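 active = most replicates above 75%; inconclusive = exactly half above 75%; inactive = most below 75%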;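 note: all wells also contain fluconazole at 8 µg/ml as a sub-toxic cotreatment; 0% = median of DMSO wells and 100% = median of geldanamycin control wells; wells of about 8 µL received 7.5 nL stock; the first replicate is given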
# LANA-H2A inh: blocks KSHV LANA binding to histone H2A/H2B | inhibition, % (concentration not given with the values) | Q9QR71 | AID 2629 | hit rate 0.6% among 320,000 | cell-free LANA-H2A/H2B peptide, fluorescence polarization; in the data active = inhibition mostly above about 10%, no sharp cut-off; inactive = mostly below about 6.7%;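 note: stock transfer was 7.5 nL into about 10 µL; 0% = median of vehicle wells and 100% = median of positive control wells; one replicate is shown; the record names a cut of 25% in any replicate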
# T cruzi repl: T. cruzi replication inhibition. hit rate 1.4% among 300,000. T. cruzi beta-gal in NIH3T3, luminescence, 90 h. inhibition, % (concentration not given with the values);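 active = mean inhibition across valid replicates above about 55%, limit read from the data; inconclusive = mean below that limit but half or more replicates reach it; inactive = mean below it, under half of replicates reach it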;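 note: signal also drops with host cell toxicity which is not excluded here; 0% = plate median of DMSO wells and 100% = zero luminescence signal; higher percent means less beta-gal luminescence so fewer parasites; stock transfer was 50 nL into about 50 µL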
# Ecoli rRNA inh OD600: further read-out of Ecoli rRNA inh, marked with its call; OD600 change, %; measured here: OD600 growth;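 optical density of the mix in the first replicate; 0 = DMSO median and -100 = no signal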
# Ecoli rRNA inh RFP: recorded beside Ecoli rRNA inh, whose call it bears; RFP signal change, %; measured here: RFP humanized mutant strains;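 first replicate; 0 = DMSO median and -100 = no signal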
# * marks the source's active call; other numbers are inactive results; ? = inconclusive; / = no result given.
SMILES,Ecoli rRNA inh,Ecoli rRNA inh OD600,Ecoli rRNA inh RFP,B2AR ag,Beta apoptosis,A1 inh,ALR H2O2 inh,Calb FLC,LANA-H2A inh,T cruzi repl
CCOc1ccc(CN2C(=O)CCC2(C)C(=O)NCc2cccnc2)cc1 (configuration not stated),13,9,-1.8,4,-7,-0.2,/,-3,-8.3,4
COc1ccccc1C(=O)N1CCN=C1SC,/,/,/,-5,0,1.2,-13,-12,2.6,-2
CCCCN(C(=O)COC(=O)COc1c(C)cc(C)cc1C)c1c(N)n(CCC)c(=O)[nH]c1=O,14,18,0.9,6,-7,-0.2,-39,2,-8.0,-5
CCCCCN(C(=O)CCC(=O)OCCOc1cccc(C)c1)c1c(N)n(CCCC)c(=O)[nH]c1=O,8,2,-2.2,6,1,0.8,-4,/,6.4,11
CCOC(=O)c1c(-c2ccc(C)o2)csc1NC(=O)CN1CCN(CC)CC1,/,/,/,-5,1,0.4,-4,0,2.3,8
CC(C)c1ccc(CNC(=O)CCc2ccccc2)cc1,-42,-55,0.0,-4,4,1.1,-3,19,3.4,3
CCN1CCN(S(=O)(=O)c2ccc(C)c([N+](=O)[O-])c2)CC1,/,/,/,1,2,0.4,-4,3,0.4,3
COC(=O)c1c(C)noc1-c1cc(C)on1,/,/,/,6,/,-0.4,2,7,-1.7,2
COc1cc(S(=O)(=O)N2CCN=C2c2ccccc2)ccc1Cl,-9,-8,2.6,2,-1,0.9,-3,3,0.2,4
CSc1nsc(SCC(=O)N2CCCc3ccccc32)n1,/,/,/,4,/,0.4,/,-19,-1.1,7
CC1Cn2c(nnc2-c2cccc(Cl)c2)S1 (configuration not stated),0,6,-5.0,-5,-4,-0.6,5,-5,-4.1,-7
Cc1cccc(NC(=O)CCC2CCN(C(=O)C3CC=CCC3)CC2)c1 (configuration not stated),2,-8,-1.3,6,1,0.3,-6,-5,-2.9,5
CC(=O)O[C@H]1CC(C)(C)C(=C=C/C(C)=C/C=C/C(C)=C/C=C/C=C(C)/C=C/C=C(\C)C(=O)C[C@@]23O[C@]2(C)C[C@@H](O)CC3(C)C)[C@](C)(O)C1,/,/,/,/,-9,1.3,-5,-3,5.0,7
CCCNC(=O)C1(CC2CC(c3ccccc3)=NO2)CCN(C(=O)OC(C)(C)C)CC1 (configuration not stated),-16,-24,-2.3,-13,-2,1.7,1,-13,-0.8,14
CCOC(=O)C1=C(N)OC2=C(C(=O)CC(C)(C)C2)C1c1ccc(CC)s1 (configuration not stated),-3,-3,0.2,3,/,1.0,?,27,-3.1,-3
CCOc1ccccc1C(=O)Nc1cccc2cccnc12,-6,-7,1.9,-13,6,1.3,40,15,3.4,15
CCCOc1cccc(C(=O)NC(=S)Nc2ccccc2)c1,-15,-3,0.1,-18,5,-0.2,-3,2,1.0,-7
O=C(Nc1ccnn1C1CCN(Cc2ccccc2)CC1)C1CCOC1 (configuration not stated),5,10,1.2,8,0,1.0,-2,1,-2.5,13
O=C(OCCOc1cccc(Cl)c1)c1ccc(F)c(S(=O)(=O)N2CCOCC2)c1,-1,-12,6.5,1,0,-0.6,-9,/,-4.3,/
Cc1ccc(S(=O)(=O)N[C@@H](CC(C)C)C(=O)N2CCC(C(=O)N[C@H](C(=O)O)C(C)C)CC2)cc1,/,/,/,-7,-1,0.1,/,-2,-2.8,-4
CCOC(=O)c1cc2n(c1N)-c1ccccc1C2=O,/,/,/,3,3,1.0,/,-2,4.3,-18
CN(CC(=O)Nc1ccccc1Cl)C(=O)c1cccc(S(=O)(=O)N2CCN(Cc3ccccc3)CC2)c1,-16,-24,-1.0,10,54,-0.1,-2,-8,0.4,14
CCOC(=O)C1CCCN(C(=O)c2cccc([N+](=O)[O-])c2C)C1 (configuration not stated),18,8,-0.4,-3,-3,1.3,1,0,-1.1,-11
COc1ccc(-n2c(-c3ccc(Cl)cc3)c[n+]3c2CCCCC3)cc1,-32*,-12*,5.5*,19,125*,-0.3,-10,8,-1.2,54
CS(=O)(=O)N(CCCC(=O)N1CCCCCC1)c1cccc(Cl)c1,-14,-10,-1.1,-4,0,0.8,-7,-13,-3.4,0
SMILES,Ecoli rRNA inh,Ecoli rRNA inh OD600,Ecoli rRNA inh RFP,B2AR ag,Beta apoptosis,A1 inh,ALR H2O2 inh,Calb FLC,LANA-H2A inh,T cruzi repl
O=C(NCCCn1ccnc1)/C(=C/c1ccco1)NC(=O)c1ccccc1,/,/,/,-21,-4,-0.1,9,?,0.9,-2
CN(C(=O)c1ccc(F)c(S(=O)(=O)N2CCOCC2)c1)C1CCCCC1,13,6,-0.8,-3,-5,-0.4,-5,/,-20,/
O=C(N/N=C/c1ccc(F)cc1)c1sccc1OCc1ccc(F)cc1,/,/,/,-25,10,-0.9,1,-1,6.3,1
CCCC12CN(C(=O)c3ccco3)CC(CCC)(CN(C(=O)c3ccco3)C1)C2=O,18,17,-0.7,4,-2,0.7,0,-2,6.5,-21
C#CCOCCOCCOCCNc1nc(N2CCN(C(=O)CCCCCCCCCCNC(=O)[C@H](CO)n3cc(CCCSC)nn3)CC2)nc(N2CCN(C(=O)CCCCCCCCCCNC(=O)[C@H](CO)n3cc(CCCSC)nn3)CC2)n1,9,6,3.4,5,4,-2.3,-8,0,0.9,6
O=C(CN1C(=O)C2C3C=CC(C3)C2C1=O)NCC1COc2ccccc2O1 (configuration not stated),/,/,/,1,-3,0.1,10,8,-1.5,-1
CCN(CC)C(=O)c1sc2nc(-c3cccs3)cc(-c3ccc(Cl)cc3)c2c1N,/,/,/,-88,-1,-0.1,-5,4,3.8,23
S=C(c1ccc(-c2cc(Cl)ccc2Cl)o1)N1CCCCC1,/,/,/,-8,4,0.6,/,-1,-4.8,0
COc1ccc(C(=O)NCc2cc3ccccc3n2C)cc1,-13,-12,-5.1,-1,/,-0.2,4,2,-1.5,6
COCC(=O)OCc1cc2cccc(C)c2[nH]c1=O,11,7,1.3,0,-10,-0.1,-14,-4,3.7,-21
CC1CCCCN1C(=O)Cn1cc(C(=O)c2ccco2)c2ccccc21 (configuration not stated),/,/,/,-5,3,0.0,-2,7,6.6,11
COc1ccc(CN(C(=O)c2snc(C(N)=O)c2N)C(C(=O)NC2CCCC2)c2ccco2)cc1 (configuration not stated),-4,-7,0.0,4,-18,0.2,/,22,6.0,18
CCN(CC)S(=O)(=O)c1ccc(Cl)c(NC(=O)CCCCl)c1,2,3,-4.4,-3,4,0.8,/,1,-0.1,20
COc1ccccc1-c1nnc(SCC(=O)Nc2cccnc2Cl)n1C,2,4,-2.0,2,-4,-0.3,-9,/,-2.1,/
COc1cc(OC)cc(C(=O)N=c2sc3ccccc3n2C)c1,12,12,0.0,-6,6,-4.8,1,11,1.9,8
CCOc1ccc2nc(N3C(=O)C(O)=C(C(=O)c4ccco4)C3c3ccco3)sc2c1 (configuration not stated),2,2,-1.2,12,12,-0.6,6,/,/,/
CCCCOC(=O)Nc1nccs1,/,/,/,9,-4,-0.8,-14,-18,3.7,-9
Cc1ccc(C)c(S(=O)(=O)NCc2ccc(C(=O)N3CCCCCC3)cc2)c1,/,/,/,0,1,0.0,-7,12,-7.8,1
O=C1c2ccccc2C2=Nc3ccccc3SC(c3ccccc3F)C12 (configuration not stated),/,/,/,20,18,-0.2,-4,-17,0.0,52
Fc1ccc2cc(-c3ccccc3F)ncc2c1,9,7,0.7,-2,-8,-3.9,-2,/,-1.1,/
CCCCn1c(SCC(=O)N2CCC(C)CC2)nc2cc(S(N)(=O)=O)ccc21,-16,-30,1.7,-7,-3,-0.7,-2,28,-1.0,17
Cc1cc(C)nc(-n2nc(C)c(Br)c2Nc2ccc(Br)cc2)n1,/,/,/,-8,-2,-1.0,-3,-6,2.3,20
CCOC(=O)Cc1c(C)nc2c(C#N)c[nH]n2c1=O,8,12,-2.2,8,/,/,/,?,/,-7
Cn1cc(Br)c(-c2cccc(NC(=O)CCCC(=O)O)c2)n1,/,/,/,2,-4,-0.8,/,-1,2.3,-20
Cc1ccc(O)c(CNn2cnnc2)c1,/,/,/,-5,-10,-0.1,34,-1,-5.5,-2
SMILES,Ecoli rRNA inh,Ecoli rRNA inh OD600,Ecoli rRNA inh RFP,B2AR ag,Beta apoptosis,A1 inh,ALR H2O2 inh,Calb FLC,LANA-H2A inh,T cruzi repl
COc1cc(/C=C2\CCC(C3CCCC3)C2=O)cc(OC)c1OC (configuration not stated),0,0,-0.6,-1,-3,-0.5,5,-1,1.6,-9
O=C1CCCc2c1cc(-c1ccccc1)n2-c1ccc(O)cc1,7,1,-0.6,8,-4,0.8,/,-17,0.7,16
Nc1cc(=O)[nH]c(=O)n1-c1ccc(Cl)cc1,4,2,-0.7,-1,-6,0.5,-9,-17,0.7,8
CSc1ncccc1C(=O)NCC1CCCCC1,16,5,-0.7,-13,-8,0.7,-12,-6,-2.0,-6
CCCSc1nnc(Cc2cc(=O)[nH]c(=O)[nH]2)n1-c1cc(C)ccc1C,/,/,/,1,-1,0.1,1,4,0.9,-8
CCOc1ccc(CCNc2cc(C)nc3ncnn23)cc1OCC,2,5,-0.5,2,2,-0.4,-10,13,-4.7,-2
Fc1ccc(CN2CCCCCCC2)cc1,12,5,1.6,10,-4,1.2,-2,2,3.2,-10
CCOC(=O)c1c(NC(=O)COC(=O)CCOc2ccccc2C)sc(C(=O)NC)c1C,7,17,-0.4,-5,/,-0.1,/,-6,1.9,-9
COc1ccc(S(=O)(=O)N2CCN(c3ncccn3)CC2)cc1,20,12,2.5,0,-9,0.1,-12,0,-4.3,2
COc1cc(OC)cc(C(=O)Nc2ccc(N(C)C)c3ccccc23)c1,16,15,6.0,19,-5,0.4,-55,20,-3.0,-2
Cc1cccc2cc(C(c3nnnn3CC3CCCO3)N3CCOCC3)c(=O)[nH]c12 (configuration not stated),/,/,/,-7,0,-0.9,-16,1,2.5,-9
Oc1oc(-c2ccco2)nc1C=Nc1cccc(Cl)c1,/,/,/,1,-13,0.3,96*,9,3.4,-12
S=C(NCCc1ccccn1)Nc1ccccc1,12,12,-6.5,-9,0,-1.1,-2,-21,-1.8,15
COc1ccccc1-n1cnc2cc(NS(=O)(=O)c3ccccc3)ccc21,-23,-19,2.9,-4,12,0.4,-1,0,0.8,11
CC(=O)c1ccc(N2CCN(S(=O)(=O)c3ccc4c(c3)CC(C)N4C(C)=O)CC2)cc1 (configuration not stated),6,16,1.1,-2,91*,-0.8,-10,-19,-0.7,-3
C=CCn1c2[n+](c3ccccc3c1=O)CCCCC2,14,4,5.1,2,2,-0.4,3,-7,-0.3,-8
Cc1cc(C)c([N+](=O)[O-])cc1NC(=O)CCS(=O)(=O)c1ccccc1,-1,1,0.3,0,-9,0.2,-18,-1,1.0,-12
Cc1sc(NC(=S)NC(=O)c2ccccc2)c(C#N)c1C,/,/,/,-6,-2,1.0,17,-4,1.5,-17
CCOC(=O)CSc1nncc2ccc(OC)c(OC)c12,/,/,/,-11,-6,-0.5,3,0,-15,6
CN(c1ccc(Cl)cc1)S(=O)(=O)c1nnc(NC(=O)c2ccco2)s1,1,6,2.9,-11,6,-0.8,24,2,-5.5,-20
CCN(CC)N=Nc1[nH]nc2nc(C)cc(C)c12,/,/,/,4,9,1.2,7,-2,0.5,11

# This is a subset, so the mix of outcomes need not match the whole.
